# Vaccinia stage: blocks a specific stage of Vaccinia orthopoxvirus infection; activity change (mCherry), % (test concentration not listed); 0.01% of 89,000 active; Vaccinia-infected cells, mCherry/Venus stage reporter fluorescence; stronger effect = lower value; some inactives read as strong as hits;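 active means mCherry past -33% and 40 or more points under the early reporter, replicates agreeing; inconclusive means past -33% without that gap or agreement; tested in A549 cells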;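 further: scaled between vehicle wells and reference inhibitor wells; 23 nL library stock went into each well; one replicate is shown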
# Vaccinia stage Venus: further read-out of Vaccinia stage, marked with its call; activity change (Venus), %; measured here: Venus reporter, other viral stage;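 negative = less Venus signal; first of two replicates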
# Numbers without * were called inactive; ? = inconclusive; . = not tested or not shown; & = joins results of further samples. The list is partial. The share of hits here may be higher or lower than overall.
SMILES,Vaccinia stage,Vaccinia stage Venus
C/C=C/c1cnc2c(c1)C(=O)N([C@H](C)CO)C[C@H](C)[C@@H](CN(C)Cc1ccccc1F)O2,-11,-8
C[C@H]1CN([C@@H](C)CO)C(=O)c2cccc(NS(=O)(=O)c3ccc(Cl)cc3)c2O[C@@H]1CN(C)C(=O)Nc1cccc2ccccc12,17,8
COCCNC(=O)C[C@H]1C[C@H]2c3cc(NC(=O)Nc4ccccc4)ccc3O[C@H]2[C@@H](CO)O1,9,5
O=C(N[C@H]1C=C[C@@H](CC(=O)N2CCOCC2)O[C@H]1CO)c1ccccn1,-5,3
CC(C)C#Cc1ccc2c(c1)O[C@H](CN(C)C(=O)CC1CC1)[C@H](C)CN([C@H](C)CO)S2(=O)=O,-22,-13
C[C@@H]1CN([C@H](C)CO)C(=O)c2cc(C#CCc3ccccc3)cnc2O[C@@H]1CN(C)C(=O)C1CC1,19,4
COc1ccc(S(=O)(=O)N(C)C[C@@H]2Oc3ccc(NC(=O)CCCN(C)C)cc3CC(=O)N([C@H](C)CO)C[C@H]2C)cc1,0,-2
C[C@H]1CN([C@@H](C)CO)C(=O)c2cc(NC(=O)Nc3ccc(C(F)(F)F)cc3)ccc2O[C@H]1CN(C)S(C)(=O)=O,16,10
O=C(NCC1CC1)[C@H]1[C@H](CO)[C@H]2Cn3c(ccc(-c4cccnc4)c3=O)[C@@H]1N2C(=O)C1CCC1,6,-5
COc1ccc(NC(=O)Nc2ccc3c(c2)C(=O)N([C@H](C)CO)C[C@H](C)[C@H](CN(C)CC2CCCCC2)O3)cc1,-10,-8
O=C(C[C@H]1C=C[C@@H](NS(=O)(=O)c2cccc(F)c2)[C@@H](CO)O1)NCc1ccc2c(c1)OCO2,8,0
C[C@H]1CCCCO[C@H](CN(C)C(=O)Nc2ccc3c(c2)OCO3)[C@@H](C)CN([C@@H](C)CO)C(=O)c2cc(NC(=O)Nc3ccc(F)cc3)ccc2O1,5,10
C[C@@H]1CCCCO[C@H](CN(C)C)[C@@H](C)CN([C@H](C)CO)C(=O)c2cc(NS(=O)(=O)c3cccs3)ccc2O1,17,8
COc1ccc(-c2cnc3c(c2)C(=O)N([C@H](C)CO)C[C@@H](C)[C@@H](CN(C)C(=O)CN(C)C)O3)cc1,2,-6
CCCN1[C@H](C(=O)NC2CCC2)[C@@H](CO)[C@@H]2Cn3c(ccc(-c4ccccc4F)c3=O)[C@@H]21,7,14
Cc1ccc(S(=O)(=O)N[C@H]2CC[C@H](CCNC(=O)C3CCOCC3)O[C@@H]2CO)cc1,1,-2
COc1ccc(NC(=O)N2C[C@@H](O)COC[C@H]3O[C@@H](CC(=O)NCc4ccccc4OC)CC[C@@H]32)cc1,-12,-11
CO[C@H]1CN(C)C(=O)c2cc(NS(=O)(=O)c3cccc(Cl)c3)ccc2OC[C@H](C)NC[C@H]1C,5,7
CO[C@@H]1CN(C)C(=O)c2ccc(NS(C)(=O)=O)cc2OC[C@@H](C)N(C(=O)C2CCOCC2)C[C@@H]1C,11,10
C[C@H]1CN([C@@H](C)CO)C(=O)c2cccc(NC(=O)C3CC3)c2O[C@@H]1CN(C)C(=O)Nc1ccccc1,5,11
CCCNC(=O)C[C@@H]1CC[C@H]2[C@@H](COC[C@@H](O)CN2C(=O)c2ccccn2)O1,21,12
Cc1noc(C)c1S(=O)(=O)Nc1ccc2c(c1)C(=O)N([C@H](C)CO)C[C@H](C)[C@@H](CN(C)C(=O)CCC(F)(F)F)OCCCC[C@@H](C)O2,3,-6
CCS(=O)(=O)N1CC2(C1)CN(S(=O)(=O)c1ccccc1)[C@@H](CO)c1c2c2ccc(OC)cc2n1C,2,-2
CNC(=O)C[C@@H]1CC[C@H]2[C@H](COc3ccc(NC(=O)Nc4ccccc4)cc3C(=O)N2C)O1,-9,-5
CC(C)NC(=O)N1CCCCN2[C@H](CO)[C@@H](c3ccc(C#CC4CC4)cc3)[C@H]2C1,-4,-9
COc1ccc(S(=O)(=O)N(C)C[C@H]2Oc3ccc(NC(=O)NC4CCCCC4)cc3CC(=O)N([C@H](C)CO)C[C@@H]2C)cc1,-3,-2
C[C@@H]1CN([C@@H](C)CO)C(=O)c2c(c3ccccc3n2C)-c2ccccc2CO[C@H]1CN(C)S(=O)(=O)c1ccc([N+](=O)[O-])cc1,?,.
COCC(=O)Nc1ccc2c(c1)C(=O)N(C)[C@@H]1CC[C@@H](CC(=O)NCCCN(C)C)O[C@@H]1CO2,-5,-5
CO[C@H]1CN(C)C(=O)c2cc(NC(=O)C3CCCC3)ccc2OC[C@@H](C)N(CC2CC2)C[C@H]1C,3,14
O=C(N[C@H]1CC[C@@H](CCNS(=O)(=O)c2ccc(F)cc2)O[C@H]1CO)C1CCCC1,-5,-7
C[C@H](CO)N1C[C@H](C)[C@H](CN(C)S(=O)(=O)c2ccc(Cl)cc2)Oc2ccc(NC(=O)Nc3cccc4ccccc34)cc2CC1=O,-3,-9
C[C@H]1CN([C@@H](C)CO)C(=O)Cc2cc(NS(=O)(=O)c3cn(C)cn3)ccc2O[C@@H]1CN(C)Cc1ccc(C(=O)O)cc1,12,7
CN(C)C(=O)c1ccc(-c2ccccc2[C@H]2[C@@H](C#N)N(C(=O)C3CCCC3)[C@@H]2CO)cc1,12,0
C[C@@H]1CN([C@@H](C)CO)C(=O)c2cc(NC(=O)C3CC3)ccc2O[C@@H]1CN(C)C(=O)NC1CCCCC1,8,-1
O=C([C@@H]1N[C@@H]2c3cccc(=O)n3C[C@@H]2[C@H]1CO)N1CCCCC1,16,18
N#Cc1ccc(-c2ccc3c(c2)[C@@H]2[C@@H](CCN2C(=O)Cc2ccccc2)[C@H](CO)N3)cc1,-14,-10

# Profiles, quoted from the list. Screens in order: Vaccinia stage, Vaccinia stage Venus
# COCC(=O)Nc1ccc2c(c1)C(=O)N(C)[C@@H]1CC[C@@H](CC(=O)NCCCN(C)C)O[C@@H]1CO2 is listed as -5, -5
# O=C(N[C@H]1CC[C@@H](CCNS(=O)(=O)c2ccc(F)cc2)O[C@H]1CO)C1CCCC1 is listed as -5, -7

# Carrying on:
SMILES,Vaccinia stage,Vaccinia stage Venus
CC(C)NC(=O)N(C)C[C@H]1OCc2ccccc2-c2c(n(C)c3ccccc23)C(=O)N([C@@H](C)CO)C[C@H]1C,25,17
CC(C)NC(=O)NCC[C@H]1CC[C@@H](NS(=O)(=O)c2ccc(Oc3ccccc3)cc2)[C@H](CO)O1,-10,-10
C[C@H](CO)N1C[C@H](C)[C@H](CN(C)Cc2ccc(C(=O)O)cc2)Oc2ccc(NC(=O)C3CC3)cc2C1=O,3,5
C[C@H](CO)N1C[C@H](C)[C@@H](CN(C)C(=O)Nc2ccccc2)OCCCC[C@H](C)Oc2ccc(NS(C)(=O)=O)cc2C1=O,18,16
O=C(NCc1ccccc1)[C@@]1(CCS(=O)(=O)c2ccccc2)COC(c2ccc(OCCCO)cc2)=N1,22,15
C[C@H](CO)N1C[C@H](C)[C@@H](CN(C)S(C)(=O)=O)OCCCC[C@H](C)Oc2ccc(NC(=O)Nc3cccc4ccccc34)cc2C1=O,10,10
Cc1cccc(-c2ccc([C@@H]3[C@@H](CO)N4CCCCN(Cc5ccncc5)C[C@H]34)cc2)c1,-13,-9
CCCC(=O)N1C[C@@H]2[C@H](c3ccccc31)[C@H](CO)N2C(=O)Nc1ccc(F)cc1,2,5
COc1ccccc1-c1ccc2c(c1)O[C@@H](CN(C)CC1CCOCC1)[C@H](C)CN([C@@H](C)CO)S2(=O)=O,-34,-25
COc1cccc(-c2ccc([C@H]3[C@@H](CO)N4CCCCN(CC5CCOCC5)C[C@H]34)cc2)c1,0,-5
CC(C)NC[C@H]1[C@@H](c2ccc(C3=CCCC3)cc2)[C@@H](CO)N1C(=O)CC1CC1,-5,21
CC(C)CC#Cc1ccc2c(c1)O[C@@H](CN(C)CC1CCOCC1)[C@@H](C)CN([C@@H](C)CO)S2(=O)=O,?,.
Cc1noc(C)c1S(=O)(=O)Nc1ccc2c(c1)CC(=O)N([C@@H](C)CO)C[C@@H](C)[C@@H](CN(C)S(=O)(=O)c1ccccc1)O2,4,8
CO[C@@H]1CC[C@@H]2CCN(C)C(=O)C[C@H](c3ccccc3)CN(C)C(=O)c3cc(C#N)ccc3OC[C@H]1O2,8,1
C[C@@H]1CN([C@@H](C)CO)C(=O)c2cc(C#C[C@@H](C)O)cnc2O[C@H]1CN(C)C(=O)c1ccccc1,6,7
COc1ccc([Si](C)(C)[C@H]2[C@H](CCn3cc(CCO)nn3)O[C@@]3(C(=O)N(Cc4cccc(N5CCC5=O)c4)c4ccccc43)[C@@H]2C)cc1,?,.
COc1ccc(C(=O)N2C[C@H]3[C@@H](c4ccccc42)[C@@H](CO)N3C(=O)c2ccc(F)cc2)cc1,19,12
Cc1noc(C)c1NC(=O)Nc1cccc2c1O[C@H](CN(C)C(=O)Nc1c(C)noc1C)[C@@H](C)CN([C@@H](C)CO)C2=O,4,2
COc1ccc(-c2cnc3c(c2)C(=O)N([C@H](C)CO)C[C@H](C)[C@@H](CN(C)C(=O)C2CCCCC2)O3)cc1,-24,-20
COCCN(C[C@@H]1[C@H](c2ccccc2)[C@@H](CO)N1C(=O)C1CCC1)C(C)=O,12,11
COc1ccccc1NC(=O)N[C@@H]1CC[C@H](CC(=O)N[C@@H](C)c2ccccc2)O[C@@H]1CO,5,11
Cc1ccc(S(=O)(=O)N[C@H]2CC[C@@H](CC(=O)N3CCN(c4ccccc4)CC3)O[C@H]2CO)cc1,-15,-14
Cc1ccc(S(=O)(=O)Nc2ccc3c(c2)C(=O)N([C@H](C)CO)C[C@H](C)[C@@H](CN(C)C(=O)C2CCCCC2)OCCCC[C@H](C)O3)cc1,?,.
COc1ccccc1NC(=O)N1CC(=O)N2[C@H](C1)[C@H](c1ccc(-c3cccc(C)c3)cc1)[C@@H]2CO,-22,-14
O=C(C[C@H]1C[C@H]2c3cc(NC(=O)C4CCC4)ccc3O[C@H]2[C@@H](CO)O1)NCc1cc(F)ccc1F,18,7
CN(C)C(=O)c1ccc(-c2ccc(C3[C@@H]4CN(C(=O)Cc5ccccc5)C[C@H]3N4)cc2)cc1 (some centres undefined),5&-34,2&-21
C[C@@H]1CCCCO[C@@H](CN(C)Cc2ccc3c(c2)OCO3)[C@H](C)CN([C@H](C)CO)C(=O)c2cc(N(C)C)ccc2O1,-22,-19
COc1cccc(NC(=O)N(C)C[C@@H]2OCc3ccccc3-c3c(n(C)c4ccccc34)C(=O)N([C@H](C)CO)C[C@@H]2C)c1,?,.
C[C@H](CO)N1C[C@H](C)[C@@H](CN(C)CC2CC2)Oc2c(NC(=O)c3ccc(-c4nccs4)cc3)cccc2C1=O,-8,-2
O=S(=O)(c1ccccc1F)N1[C@@H]2CNC[C@H]1C2c1ccc(-c2cncnc2)cc1 (some centres undefined),3,4
C[C@H](CO)N1C[C@H](C)[C@@H](CN(C)C(=O)C2CCCCC2)OCCCC[C@H](C)Oc2ccc(NC(=O)CCC(F)(F)F)cc2C1=O,-9,-11
O=C(NCC1CC1)[C@H]1[C@H](CO)[C@H]2Cn3c(ccc(C4=CCCC4)c3=O)[C@@H]1N2CCC(F)(F)F,15,5
COc1ccc(S(=O)(=O)Nc2ccc3c(c2)C(=O)N([C@H](C)CO)C[C@@H](C)[C@@H](CN(C)S(=O)(=O)c2ccccc2)O3)cc1,3,8
Cc1ccc(S(=O)(=O)N[C@@H]2CC[C@H](CC(=O)NCc3ccccc3F)O[C@H]2CO)cc1,-7,-3
C[C@@H]1CN([C@@H](C)CO)S(=O)(=O)c2ccc(C3=CCCC3)cc2O[C@H]1CN(C)C(=O)c1cccnc1,16,15
O=C(C[C@H]1CC[C@H](NC(=O)C2CC2)[C@@H](CO)O1)Nc1nccs1,1,-1
COc1ccc(NC(=O)Nc2ccc3c(c2)C(=O)N([C@H](C)CO)C[C@H](C)[C@H](CN(C)C(=O)CCCN(C)C)OCCCC[C@@H](C)O3)cc1,22,9
C[C@@H]1CN([C@@H](C)CO)C(=O)c2cc(NC(=O)NC3CCCCC3)ccc2O[C@@H](C)CCCCO[C@H]1CN(C)Cc1ccc(C(F)(F)F)cc1,?,.
C[C@H](CO)N1C[C@H](C)[C@H](CN(C)S(=O)(=O)c2cn(C)cn2)Oc2ccc(NC(=O)NC3CCCCC3)cc2CC1=O,9,8
C[C@H]1CN([C@@H](C)CO)C(=O)c2cccc(NC(=O)Nc3ccc(F)cc3)c2O[C@H]1CN(C)C,?,.
O=C(N[C@H]1CC[C@@H](CCNS(=O)(=O)c2ccc(F)cc2)O[C@H]1CO)c1cccnc1,-4,-5
COc1ccc(CN2C[C@@H](C)[C@H](OC)CN(C)C(=O)c3ccc(NC(C)=O)cc3OC[C@H]2C)cc1,-4,-12
C[C@H]1CCCCO[C@H](CN(C)C(=O)c2ccccc2)[C@@H](C)CN([C@@H](C)CO)C(=O)c2cc(NC(=O)Nc3ccccc3)ccc2O1,-19,-9

# 6 entries out of the list, sorted by formula weight, lowest first.
SMILES,Vaccinia stage,Vaccinia stage Venus
O=C(N[C@H]1CC[C@@H](CCNS(=O)(=O)c2ccc(F)cc2)O[C@H]1CO)c1cccnc1,-4,-5
C[C@H]1CN([C@@H](C)CO)C(=O)c2cccc(NC(=O)Nc3ccc(F)cc3)c2O[C@H]1CN(C)C,?,.
C[C@H](CO)N1C[C@H](C)[C@H](CN(C)S(=O)(=O)c2cn(C)cn2)Oc2ccc(NC(=O)NC3CCCCC3)cc2CC1=O,9,8
C[C@H]1CCCCO[C@H](CN(C)C(=O)c2ccccc2)[C@@H](C)CN([C@@H](C)CO)C(=O)c2cc(NC(=O)Nc3ccccc3)ccc2O1,-19,-9
COc1ccc(NC(=O)Nc2ccc3c(c2)C(=O)N([C@H](C)CO)C[C@H](C)[C@H](CN(C)C(=O)CCCN(C)C)OCCCC[C@@H](C)O3)cc1,22,9
C[C@@H]1CN([C@@H](C)CO)C(=O)c2cc(NC(=O)NC3CCCCC3)ccc2O[C@@H](C)CCCCO[C@H]1CN(C)Cc1ccc(C(F)(F)F)cc1,?,.

# Bioassay records from PubChem.
